gsp ag: activates gsp, the McCune-Albright syndrome mutation | actives 0.13% (n = 340,000) | Potency, µM (doses to about 76.9 µM), for the others: at the highest dose activation (cAMP increase), usual class: activators | gsp mutant cells, cAMP HTRF, 30 min; control for the full effect not named in the record; active = well fitted activation curve with a large enough effect; inconclusive = small, poorly fitted or top-dose-only effect, or another doubt; inactive = no such curve, though single readings can be large or run the other way; cell line not stated here;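 further: phosphodiesterase inhibitor Ro 20-1724 added with compounds to block cAMP breakdown; potency means the concentration at half of the fitted maximal effect; nearly all actives have a fitted effect of over 60% in size; about a fifth of the inactives were tested at one dose only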
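Cells stably selected in G418 were plated at 2000/well, grown 16-24 hr, then given compounds in DMSO with the PDE inhibitor […] (300 uM solution added) for 30 min at 37C; cAMP was read by HTRF.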
gsp antag: antagonizes gsp, the McCune-Albright syndrome mutation | actives 0.4% (n = 340,000) | gsp-mutant cells, cAMP HTRF, 30 min; control for the full effect not named in the record | AID 624288 | Potency, µM (series often up to 76.9 µM), for inactives: at the highest dose activity change, negative = inhibition, actives largely listed as inhibitors; active = falling curve of any shape with a large fitted effect; inconclusive = falling curve, mostly with a smaller effect; inactive = flat or rising curve; cell line not stated here;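 further: intracellular cAMP measured with PDE inhibitor Ro 20-1724 present during compound exposure; potency means the concentration at half of the fitted maximal effect; on the % scale 0 is the no-effect control and ±100 the full control effect; nearly all actives have a fitted effect of over 65% in size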
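Measurement of cellular cAMP by homogeneous time-resolved fluorescence following a 30 min compound exposure at 37C. The PDE inhibitor […] was present throughout; the assay buffer was DPBS with 0.05% BSA and 0.005% Tween 20.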
Six1-Eya2 inh: blocks human Six1 binding to Eya2; activity change, % (test concentration not listed); AlphaScreen GST-Six1/His-Eya2 binding, biochemical; hits give low values; control for the full effect not named in the record; AID 651725; actives 0.56% (n = 360,000); in the data active = activity change below about -65%; inconclusive = about -30% to -65%; inactive = above about -30%; further: on the % scale 0 is the no-effect control and ±100 the full control effect; compound concentration not given in the record
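Six1/Eya2 binding was read as AlphaScreen signal after compounds were pinned into GST-Six1 plus His-tagged Eya2 (5X stock 250/500 nM) in pH 8.0 Tris/NaCl/TCEP buffer, beads added, then incubated 1 h, 37 C, dark.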
D2 ag: activates the human D2 dopamine receptor. P14416. DiscoveRx PathHunter D2 beta-arrestin, luminescence, 90 min; 100% = 57 uM dopamine signal. activation, % (test concentration not listed). actives 0.084% (n = 360,000); in the data active = activation above about 40%; inconclusive = about 15% to 40%; inactive = below about 15%; further: compound concentration not given in the record; the text of the record calls up to 30% inactive
Target sequence (P14416 whole entry, looked up): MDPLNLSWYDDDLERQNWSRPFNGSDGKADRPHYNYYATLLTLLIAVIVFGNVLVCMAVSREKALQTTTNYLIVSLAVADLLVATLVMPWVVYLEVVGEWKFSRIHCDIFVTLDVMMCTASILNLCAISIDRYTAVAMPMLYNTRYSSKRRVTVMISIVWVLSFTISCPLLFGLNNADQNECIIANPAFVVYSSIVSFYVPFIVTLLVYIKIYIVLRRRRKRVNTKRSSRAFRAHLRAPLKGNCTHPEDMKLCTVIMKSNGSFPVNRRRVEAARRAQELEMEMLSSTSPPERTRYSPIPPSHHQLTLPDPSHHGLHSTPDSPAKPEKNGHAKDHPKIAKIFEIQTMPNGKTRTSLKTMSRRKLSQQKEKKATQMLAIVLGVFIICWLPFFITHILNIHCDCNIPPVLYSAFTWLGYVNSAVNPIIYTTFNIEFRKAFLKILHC
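Agonist mode: compounds alone added to overnight-plated D2 PathHunter cells for 90 min at 37 C, with 57 uM final dopamine (EC100) defining full response. Beta-arrestin recruitment detected by chemiluminescent reagent, read after 1 h at ambient temperature.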
D2 potentiator: human D2 receptor positive allosteric modulation; AID 624464; DiscoveRx D2 beta-arrestin cells, luminescence, 90 min; 100% = 57 uM dopamine signal; potentiation, % (no concentration beside the values); actives 0.23% (n = 360,000); active = potentiation of 50% or more; inconclusive = 30% to 50%; inactive = 30% or less;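 further: compound concentration not given in the record; tested on top of an EC20 dose of dopamine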
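D2 cells co-treated with compound plus 50 nM dopamine (EC20) for 90 min at 37 deg C to detect potentiation. Beta-arrestin recruitment was read as enzyme-fragment luminescence after 1 h at ambient temperature. Full response was set by 57 uM dopamine.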
CtBP-E1A blk: blocks the CtBP interaction with E1A. AID 651724. actives 0.49% (n = 340,000). AlphaScreen GST-E1A/His-CtBP binding, 1536-well; hits give low values; control for the full effect not named in the record. activity change, % (no concentration beside the values); in the data active means activity change below about -65%; inconclusive means about -30% to -65%; inactive means above about -30%; further: on the % scale 0 is the no-effect control and ±100 the full control effect; compound concentration not given in the record
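Steps: dispense buffer (Tris pH 8.0, NaCl 300 mM, TCEP 1 mM, BSA, Tween 20); add 5X protein mix (GST-E1A, His-CtBP, 125 nM each); pin 23 nL compound; 2 h at 37 °C, dark; add 5X beads (50 ug/mL); 1 h; read.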
* = called active by the depositor; ? = inconclusive; · = no result given; [ ] = dose if it differs, or a comment.

SMILES	gsp ag	gsp antag	Six1-Eya2 inh	D2 ag	D2 potentiator	CtBP-E1A blk
CCn1c2ccccc2c2cc(N=C3SC(CC(=O)Nc4ccccc4OC)C(=O)N3CCOC)ccc21 (stereo not drawn)	0%	-2%	-14	0.9	7	-8
CC1=CC(C)(C)n2c(O)c(N=NC(N)=S)c3cccc1c32	19%	7%	5	-0.5	-5	-2
COC(=O)c1c[n+]([O-])ccc1OC	·	·	2	-3.1	3	7
Cc1ccc(S(=O)(=O)N2CCN(S(=O)(=O)c3ccccc3)C2c2ccc(N(C)C)cc2)cc1 (stereo not drawn)	15%	-20%	-22	-2.6	-14	-26
COc1cccc(/C=C2\SC(=O)N(CCC(=O)N3CCCCC3CCO)C2=O)c1 (stereo not drawn)	-7%	-9%	4	0.8	-8	-1
O=C(CN1C(=O)c2ccccc2C1=O)NC(Cc1ccccc1)C(=O)O (stereo not drawn)	8%	1%	2	-0.3	-10	2
c1ccc(CCNc2ncnc3sccc23)nc1	-7%[15.4 µM]	2%	0	-3.8	-14	6
COc1cccc(C(=O)COC(=O)c2n[nH]c(=O)c3ccccc23)c1	-12%	0%	66	4.9	3	6
COc1ccc(NC(=O)COC(=O)Cc2c(F)cccc2Cl)cc1OC	4%[15.4 µM]	2%	-1	-0.5	-2	0
CC(Cc1ccccc1)NC(=S)CN1CCCC1=S (stereo not drawn)	1%[15.4 µM]	-2%	-1	-6.4	-6	-3
COc1ccc(C(C(=O)NC2CCCCC2)N(C(=O)c2snc(C(N)=O)c2N)c2ccccc2OC)cc1 (stereo not drawn)	35%[15.4 µM]	-11%	3	-6.0	-5	-1
Cc1ccc(/C=N/NC(=O)c2nnn(-c3nonc3N)c2-c2ccccc2)o1	20%	-17%	-8	-3.3	1	-2
Cc1ccccc1NC(=O)C1CCCN(S(=O)(=O)c2ccc(-n3cnnn3)cc2)C1 (stereo not drawn)	-31%[inhibitor]	-4%	-2	2.0	1	-1
CC1CN(C(=O)Cn2c(C(F)(F)F)nc3ccccc32)CC(C)O1 (stereo not drawn)	-28%	-4%	2	-2.4	1	3
Cc1cccc(NC(=O)Nc2cccc(C#N)c2)n1	-40%	8%	2	-3.0	-5	3
O=C(CCN1C(=O)C2CC=CCC2C1=O)NC1CCCCC1 (stereo not drawn)	-10%	-1%	2	-1.5	-3	-2
CCN(C(=O)COC(=O)c1ccccc1NC(=O)c1ccco1)C1CCS(=O)(=O)C1 (stereo not drawn)	8%	-7%	-8	-0.9	-6	·
Cc1ccc(Cc2c(-c3ccco3)nc3c(C)cc(Br)cn23)cc1	·	·	?	-8.8	-11	-29
CCN(CC)CCNC(=S)Nc1ccc(Cl)cc1	-57%[inhibitor]	10%	-5	1.2	-23	7
Cc1[nH]c2ccccc2c1C(=O)COC(=O)c1ccc([N+](=O)[O-])s1	1%	-3%	-28	7.1	-6	-14
NC1=NC(c2cn[nH]c2-c2cccc(F)c2)n2c(nc3ccccc32)N1 (stereo not drawn)	-2%[15.4 µM]	17%	-2	-1.2	3	-7
O=C(Nc1nnc(C2CCCCC2)s1)c1ccc(Br)s1	?	-22%	2	0.2	0	4
CCOC(=O)c1ccccc1NC(=O)CSc1nnc(Cc2cccn2C)n1-c1ccc(C)cc1	-64%[inhibitor]	-18%	-15	3.3	-6	-7
COc1ccc(N(CC(=O)NC2CC3CCC2C3)S(=O)(=O)c2ccc(C)c([N+](=O)[O-])c2)cc1 (stereo not drawn)	0%	2%	3	2.0	-5	3
CCc1c(C)sc(NC(=O)c2cc(-c3ccc(OC)c(OC)c3)on2)c1C#N	-9%	8%	-2	-0.8	1	-3
(next part)
SMILES	gsp ag	gsp antag	Six1-Eya2 inh	D2 ag	D2 potentiator	CtBP-E1A blk
CCN(CC)CCn1c(OC)cc(=O)[nH]c1=O	-41%[inhibitor]	17%	6	-0.2	-11	1
Cn1c(=O)c2c(ncn2CC(=O)Nc2ccc(Cl)cc2Cl)n(C)c1=O	?	6%	1	-0.9	20	-3
CCSc1nnc(-c2cccnc2)n1-c1ccc(C)c(Cl)c1	?	3%	3	-0.2	-1	2
COc1ccc(C=NC(CO)C(O)c2ccc([N+](=O)[O-])cc2)cc1 (stereo not drawn)	0%	12%	6	1.2	-1	0
CC1(C)CC(=O)c2sc(NS(=O)(=O)c3ccc(Cl)cc3)nc2C1	30%	-8%	11	-2.4	-5	1
CCN(CC)CCN1c2ccccc2Sc2ccc3ccccc3c21	5%	-3%	4	-1.2	-17	4
COc1ccccc1/C=C/c1onc(C)c1S(=O)(=O)N1CCC(C(=O)NC2CCCCCC2)CC1	10%	-4%	0	3.2	-7	0
Cc1ccc(N=C2NC(=O)CC(C(=O)Nc3ccc4c(c3)OCO4)S2)cc1 (stereo not drawn)	21%	-8%	-4	5.0	3	7
Cc1ccccc1NC(=O)CN(c1ccc(F)cc1)S(C)(=O)=O	-4%	-4%	5	-4.5	-14	-2
Cc1cc(NC(=O)CSc2nnc(-c3c[nH]c4ccccc34)n2C)no1	-50%[inhibitor]	-3%	-3	-0.6	-8	-4
C#CCOc1c(Cl)cc(/C=C2/C(=O)ON=C2C)cc1OC	-8%[15.4 µM]	2%	2	0.8	-3	16
Cc1ccc(N2CC(C(=O)NCc3n[nH]c(=O)c4ccccc34)CC2=O)cc1C (stereo not drawn)	8%	10%	-1	-4.9	-8	0
CCS(=O)(=O)N1N=C(c2cccc(NS(C)(=O)=O)c2)CC1c1cccs1 (stereo not drawn)	4%	-6%	4	-3.0	-6	2
NC(=O)c1ccc(CN2CCC(Cc3ccccc3)CC2)cc1	-8%	9%	-3	-4.4	-29	-6
COc1ccc(-c2ccc(CCC(=O)O)n2CC(=O)Nc2ccccc2C)cc1	-20%	-5%	-7	0.6	-5	-8
CCOC(=O)c1ccc([N+](=O)[O-])cc1NC(C)=O	-8%[15.4 µM]	-5%	-3	10	8	6
C#CCOCCOCCOCCNc1nc(N2CCN(C(=O)Cn3cc(CCO)nn3)CC2)nc(N2CCN(C(=O)[C@H]([C@@H](C)CC)n3cc(CCCN=C(N)N)nn3)CC2)n1	·	9%	7	-1.1	-11	5
CCC(NC(=O)C(C)NC)C(=O)N1CCCC1C(=O)NC1CCCc2ccccc21 (stereo not drawn)	·	10%	12	-1.5	-1	9
O=C(NCCO)c1nc2ccccc2s1	-53%[inhibitor]	-1%	7	-0.9	-3	-2
COc1ccc(-c2nc3ccccc3n2Cc2ccc(C)cc2)cc1	6%	0%	-10	-2.5	-21	-23
Cc1oc(-c2ccccc2)cc1C(=O)NC(Cc1c[nH]c2ccccc12)C(=O)O (stereo not drawn)	-4%	-3%	-5	-0.3	-3	-5
CCC(C)(C)NC(=O)C(c1ccc(OC)cc1)N(C(=O)CCC(=O)Nc1cc(C)on1)c1ccccc1OC (stereo not drawn)	2%[15.4 µM]	1%	-5	0.5	-9	-6
CCn1cc(C(=O)NC2CCCC2)c(=O)c2cc(S(=O)(=O)N3CCOCC3)ccc21	-9%[15.4 µM]	-7%	7	-2.5	0	3
COc1ncccc1C(=O)N1CCCC(C(=O)Nc2cccc(-c3ccc(F)cc3)c2)C1 (stereo not drawn)	-29%	·	2	-1.7	-23	-6
CC1(C)CC(=O)C2=C(C1)NC(=S)C(C#N)C21CCCCC1 (stereo not drawn)	2%	-10%	-4	2.1	2	-2

One compound at a time, from the list above:
Cc1oc(-c2ccccc2)cc1C(=O)NC(Cc1c[nH]c2ccccc12)C(=O)O (stereo not drawn) reads gsp ag = -4%; gsp antag = -3%; Six1-Eya2 inh = -5; D2 ag = -0.3; D2 potentiator = -3; CtBP-E1A blk = -5
COc1ccc(-c2ccc(CCC(=O)O)n2CC(=O)Nc2ccccc2C)cc1 reads gsp ag = -20%; gsp antag = -5%; Six1-Eya2 inh = -7; D2 ag = 0.6; D2 potentiator = -5; CtBP-E1A blk = -8

The list goes on.
SMILES	gsp ag	gsp antag	Six1-Eya2 inh	D2 ag	D2 potentiator	CtBP-E1A blk
O=C(/C=C/c1ccc2c(c1)OCO2)Nc1cc(S(=O)(=O)N2CCOCC2)ccc1N1CCOCC1	2%[15.4 µM]	7%	-3	-2.3	-2	7
CC(NC(=O)c1ccc(S(=O)(=O)N(C)C)cc1)c1ccc(-n2ccnc2)cc1 (stereo not drawn)	-23%	4%	4	1.6	-6	-10
O=C(CCc1ccc(S(=O)(=O)N2CCOCC2)cc1)Nc1ccc(F)cc1[N+](=O)[O-]	-54%[inhibitor]	14%	-7	9.7	27	-1
N#CC1=C(SCc2ccccc2)NC(=O)CC1c1ccco1 (stereo not drawn)	17%	1%	-2	0.6	-5	-2
CC(=O)Nc1ccc(NC(=O)c2ccc(Cl)c(S(=O)(=O)N3CCc4ccccc43)c2)cc1	-35%[inhibitor]	?	-6	1.3	-4	4
CCN1CCc2c(C#N)c(N3CCOCC3)nc(N3CCOCC3)c2C1	-18%	-1%	-1	-2.3	-10	-3
CCC(C(=O)NC1CC1)n1nc(C)c2c(C)n(-c3ccc(C)cc3)nc2c1=O (stereo not drawn)	3%	6%	0	-0.5	-9	4
COc1ccc([C@H]2C(C(=O)O)=C[C@@H](CC3CCCC3)N2S(=O)(=O)c2ccc(C)cc2)cc1OC	·	-20%	-1	-0.5	·	5
CC1N/C(=C\C(=O)c2ccccc2)N(O)C1(C)C (stereo not drawn)	-15%	1%	3	7.6	25	6
CCOC(=O)c1ccc(N2CCN(c3ccc(F)cc3)CC2)c(NC(=O)Nc2cccc(OC)c2)c1	14%[15.4 µM]	14%	3	1.4	10	11

Ordered by heavy-atom count (rising): 6 of the compounds above.
SMILES	gsp ag	gsp antag	Six1-Eya2 inh	D2 ag	D2 potentiator	CtBP-E1A blk
CC1N/C(=C\C(=O)c2ccccc2)N(O)C1(C)C (stereo not drawn)	-15%	1%	3	7.6	25	6
CCC(C(=O)NC1CC1)n1nc(C)c2c(C)n(-c3ccc(C)cc3)nc2c1=O (stereo not drawn)	3%	6%	0	-0.5	-9	4
O=C(CCc1ccc(S(=O)(=O)N2CCOCC2)cc1)Nc1ccc(F)cc1[N+](=O)[O-]	-54%[inhibitor]	14%	-7	9.7	27	-1
COc1ccc([C@H]2C(C(=O)O)=C[C@@H](CC3CCCC3)N2S(=O)(=O)c2ccc(C)cc2)cc1OC	·	-20%	-1	-0.5	·	5
O=C(/C=C/c1ccc2c(c1)OCO2)Nc1cc(S(=O)(=O)N2CCOCC2)ccc1N1CCOCC1	2%[15.4 µM]	7%	-3	-2.3	-2	7
CCOC(=O)c1ccc(N2CCN(c3ccc(F)cc3)CC2)c(NC(=O)Nc2cccc(OC)c2)c1	14%[15.4 µM]	14%	3	1.4	10	11
